Source: PubChem BioAssay (National Center for Advancing Translational Sciences (NCATS))
RE007 growth inh: less growth of the S. pombe RE007 Vpr strain. S. pombe RE007 Vpr strain, BacTiter-Glo ATP luminescence, 24 h; control for the full effect not named in the record. Potency, µM (series often up to 92.2 µM), for the others: at the highest dose activity change, negative = less growth. hit rate 0.21% among 360,000. AID 651644; active = well fitted falling curve with a large enough effect; inconclusive = small, poorly fitted or top-dose-only effect; inactive = no such curve, though single readings can be large or run the other way;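 also: % is scaled to controls: 0 for no effect and ±100 for the full control effect; nearly all actives have a fitted effect of over 50% in size; the assay follows cell death caused by Vpr and the record does not say whether a fall means rescue or toxicity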
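Fission yeast strain RE007, carrying one chromosomally integrated HIV-1 vpr copy, was seeded at OD 0.01 in PMG+AL medium with 23 nL pinned compound. After 24 h at 30 °C and 99% humidity, viability was read by BacTiter-Glo luminescence.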
SARS PLpro yeast: inhibitors of SARS-CoV papain-like protease in yeast; AID 485353; Potency, µM (highest dose often 32.9 µM), without a hit: top-dose activity, positive = growth rescue; S. cerevisiae expressing SARS-CoV PLpro, growth rescue; control for the full effect not named in the record; hit rate 0.19% among 330,000; active means well fitted rising curve with a large enough effect; inconclusive means small, poorly fitted or top-dose-only effect; inactive means no such curve, though single readings can be large or run the other way; also: 0% is about no effect; nearly all actives have a fitted effect of over 55% in size; growth read by luminescence after 48 h
StopGo reporter: lowers the luciferase signal of an FMDV 2A StopGo reporter; human cells with a luciferase reporter of 2A StopGo recoding; control for the full effect not named in the record; Potency, µM (titrated, usually from 57.9 µM), for the others: at the highest dose signal change, negative = less light; hit rate 1.2% among 410,000; AID 1159524; active = well fitted falling curve with a large enough effect; inconclusive = small, poorly fitted or top-dose-only effect; inactive = no such curve, though single readings can be large or run the other way; tested in HEK293T cells; also: % is scaled to controls: 0 for no effect and ±100 for the full control effect; nearly all actives have a fitted effect of over 45% in size; luciferase light after 4 h
Starred values were filed as active, the others as inactive; ? = inconclusive; [ ] = dose if it differs, or a comment. Potency is read from the fitted curve at half-maximal effect. The list is partial. The share of hits here may be higher or lower than overall.

SMILES | RE007 growth inh | SARS PLpro yeast | StopGo reporter
CCn1cnnc1SCC(=O)c1c(N)n(C2CC2)c(=O)[nH]c1=O | -1% | -4% | -9%
Cc1nc2ccc(NC(=O)[C@@H](NC(=O)c3c(F)cccc3F)C(C)C)cc2s1 | 0% | 5% | -17%
Cc1sc2ncnc(SCC(=O)Nc3ncccc3O)c2c1C | -6% | 2% | -6%
Nc1ccc2c(c1)OCCOCCOCCOCCOCCO2 | -15% | -2% | 1%
O=C(O)C1CCN(C(=O)CSc2nnc(-c3ccccc3)o2)CC1 | -5% | 3% | -14%
Cc1cc(NC(=O)CSCC(=O)OCC(=O)Nc2ccc(OC(F)F)cc2)no1 | -5% | -5% | -6%
CCC(C)c1ccccc1NC(=O)C(C)Sc1n[nH]c(N)n1 (stereo not drawn) | 3% | -2% | -6%
O=C(COC(=O)c1cccc(F)c1)Nc1ccc2c(c1)OCCO2 | -20% | -3% | 41%[activator]
CN(c1ccccc1)S(=O)(=O)c1ccc(C(=O)N2CCN(c3ccccc3F)CC2)cc1 | 2% | 1% | -29%
C[C@@H]1CN([C@H](C)CO)C(=O)c2cc(NC(=O)C3CCCCC3)ccc2O[C@@H]1CN(C)Cc1ccncc1 | -8% | 5% | -12%
CN(CC(=O)Nc1ccc(F)cc1)CC(=O)N1CCCCCC1 | 2% | 1% | -9%
CC(C)(Cc1ccccc1)/[N+]([O-])=C\c1ccc(C(F)(F)F)cc1 | -13% | 0% | -14%
Cc1ccc2c(c1)C1CN(C)CCC1N2S(=O)(=O)c1cccc(C(F)(F)F)c1 (stereo not drawn) | -6% | 1% | -5%
CC1(C2CC2)NC(=O)N(CC(=O)Nc2cc(S(=O)(=O)N3CCCCC3)ccc2Cl)C1=O (stereo not drawn) | 9% | -4% | -27%
O=C(O)C1CCCCN1C(=O)c1cc2c(s1)CCCCC2 (stereo not drawn) | 6% | 1% | 8%

Four entries drawn at random from those above, as already listed:
SMILES | RE007 growth inh | SARS PLpro yeast | StopGo reporter
O=C(O)C1CCCCN1C(=O)c1cc2c(s1)CCCCC2 (stereo not drawn) | 6% | 1% | 8%
Cc1nc2ccc(NC(=O)[C@@H](NC(=O)c3c(F)cccc3F)C(C)C)cc2s1 | 0% | 5% | -17%
Nc1ccc2c(c1)OCCOCCOCCOCCOCCO2 | -15% | -2% | 1%
C[C@@H]1CN([C@H](C)CO)C(=O)c2cc(NC(=O)C3CCCCC3)ccc2O[C@@H]1CN(C)Cc1ccncc1 | -8% | 5% | -12%

The listing picks up, starting 2 compounds before the break.
SMILES | RE007 growth inh | SARS PLpro yeast | StopGo reporter
CC1(C2CC2)NC(=O)N(CC(=O)Nc2cc(S(=O)(=O)N3CCCCC3)ccc2Cl)C1=O (stereo not drawn) | 9% | -4% | -27%
O=C(O)C1CCCCN1C(=O)c1cc2c(s1)CCCCC2 (stereo not drawn) | 6% | 1% | 8%
CCN(Cc1nc2ccccc2c(=O)[nH]1)C(=O)C1CC(=O)N(c2cccc3ccccc23)C1 (stereo not drawn) | -11% | 2% | -12%
COc1ccc(-n2c(SCc3cccnc3)nc3c(c2=O)SCC3)cc1OC | 3% | 2% | -24%
COc1ccc(NC(=O)COC(=O)c2ccc(C)c(S(=O)(=O)N3CCCCC3)c2)cc1 | 6% | 3% | 3%
Cn1cncc1C#Cc1ccc2c(=O)c3ccccc3oc2c1 | 5% | -2% | 20%
O=C(CCNS(=O)(=O)c1c(Cl)cccc1Cl)N1CCCC1 | 5% | 0% | -2%
C[C@]12CC[C@H](O)C[C@@H]1CC[C@@H]1[C@@H]2CC[C@]2(C)[C@@H](C(=O)O)C[C@@H]12 | 0% | -1% | -2%
COc1ccc(-c2sc3ccccc3c2-c2ccc(OCCN3CCOCC3)cc2)cc1 | -12% | 1% | -29%
COc1ccccc1C(CNC(=O)c1ccc(C)c(S(=O)(=O)N2CCCCC2)c1)N(C)C (stereo not drawn) | -10% | -6% | -5%
COc1cc2cc(CCCOC(=O)c3ccc(C(F)(F)F)cc3)oc(=O)c2cc1OC | -7% | 5% | -3%
CC(C)(C)OC(=O)[C@H](NC(=O)OCc1ccccc1)c1ccccc1 | 6% | 0% | -21%
CC1(C)CC(=O)C=C(c2cccc(O)c2)C1 | 18% | -6% | 34%[activator]
Cc1ccc(Cl)cc1NC(=O)COC(=O)C1CC1 | -15% | 0% | 1%
Cc1ccc(S(=O)(=O)N2CCN(C(=O)CN3C(=O)CNC3=O)CC2)cc1 | -5% | -4% | 0%
N#Cc1ccccc1OCC(=O)NCc1ccccc1CN1CCCC1 | 6% | 6% | -9%
CCCn1c(N)c(C(=O)CN(C)CC(=O)Nc2ccc(F)cc2)c(=O)[nH]c1=O | 14% | 1%[6.58 µM] | -12%

Compound profiles (already shown). Order of values: RE007 growth inh	SARS PLpro yeast	StopGo reporter
Results for `Cn1cncc1C#Cc1ccc2c(=O)c3ccccc3oc2c1` : 5%	-2%	20%
Results for `COc1ccc(-n2c(SCc3cccnc3)nc3c(c2=O)SCC3)cc1OC` : 3%	2%	-24%
Results for `CCN(Cc1nc2ccccc2c(=O)[nH]1)C(=O)C1CC(=O)N(c2cccc3ccccc23)C1` (stereo not drawn) : -11%	2%	-12%
Results for `CC1(C)CC(=O)C=C(c2cccc(O)c2)C1` : 18%	-6%	34%[activator]
Results for `CC(C)(C)OC(=O)[C@H](NC(=O)OCc1ccccc1)c1ccccc1` : 6%	0%	-21%

Remaining list, next part:
SMILES | RE007 growth inh | SARS PLpro yeast | StopGo reporter
O=C(Nc1ccc(SC(F)F)cc1)c1cc(-c2ccncc2)nc2ccccc12 | 10% | -1% | ?
Cc1sc2ncnc(SCC(=O)Nc3ccc(CN4CCCC4)cc3)c2c1C | 5% | -3% | -23%
CN1C(=O)[C@@H]2[C@H](C1=O)[C@@H]1C(=O)Nc3ccccc3C(=O)N1[C@@H]2c1ccc(Br)cc1 | 10% | 6% | -9%
CCc1noc(C)c1C(=O)OCC(=O)N1CCc2ccccc21 | 32% | 8% | 8%
N#Cc1ccc(-c2c(-c3ccccc3)ncc3cc(F)ccc23)cc1 | -12% | 2% | -21%
O=C(COC(=O)c1ccc(Br)o1)c1ccc(S(=O)(=O)N2CCCCC2)cc1 | 8% | 0% | -4%
CCOC(=O)[C@H]1[C@H]2COc3ccc(Br)cc3[C@@H]2N2C(=O)c3cc(OC)c(OC)cc3NC(=O)[C@@]12C | 9% | -7% | -19%
CCCNC(=O)C(Cc1ccc(Cl)cc1)NC(=O)c1ccc(-c2ccccc2)cc1 (stereo not drawn) | -12% | -1% | -3%
CCN1CCN(C(=O)C(Cc2ccccc2)NC(=O)c2ccc(Cl)c(S(=O)(=O)N(C)C)c2)CC1 (stereo not drawn) | 3% | -2% | -11%
CSc1ncccc1C(=O)Nc1cccc(S(=O)(=O)N(C)c2ccccc2)c1 | 17% | 8% | -22%
CCC1(c2ccc(F)cc2)NC(=O)N(CC(=O)Nc2cc(S(=O)(=O)N(C)C)ccc2Cl)C1=O (stereo not drawn) | 18% | 0% | ?
Cc1cc(C(=O)NCC(c2ccco2)N2CCCC2)c2ccccc2n1 (stereo not drawn) | -4% | -2% | -14%
CCCN(CC(=O)Nc1ccccc1OC)C(=O)c1ccc2c(c1)NC(=O)C(C)S2 (stereo not drawn) | 0% | 1% | -17%
CN(Cc1ccccc1)C(=O)C1CCCN1S(=O)(=O)c1ccc(Cl)cc1 (stereo not drawn) | 4% | 4% | 4%
O=C(OCC(=O)N1CCCc2ccccc21)c1cc(S(=O)(=O)N2CCOCC2)ccc1O | 4% | -5% | 8%
COC(=O)C1CCN(C(=O)c2cc(S(=O)(=O)N3CCCCC3)ccc2Cl)CC1 | 9% | 1% | -4%
CC(=O)Nc1ccc(-n2c(C)ccc2C)cc1 | 5% | 2% | -4%
COc1cc(CCC(=O)OCC(=O)NCCc2ccc(S(N)(=O)=O)cc2)cc(OC)c1OC | -2% | -4% | -2%
C[C@@]12C(=O)Nc3ccc(Br)cc3C(=O)N1[C@H]1c3ccccc3OC[C@@H]1[C@@H]2c1ccccc1 | 3% | -3% | -28%
Cc1ccc(S(=O)(=O)N2C[C@@H]3c4ccccc4N(S(=O)(=O)c4ccc(C)cc4)[C@@H]3[C@@H](C)C2CC(=O)c2ccccc2)cc1 (stereo partly drawn) | -19% | 0% | -1%
CCOC(=O)[C@H]1[C@H]2COc3ccc(OC)cc3[C@@H]2N2C(=O)CN(Cc3ccc(OC)cc3)C(=O)[C@@]12C | 0% | ? | -13%
C[C@H](NC(=O)c1ccco1)C(=O)Nc1nnc(SCc2ccccc2)s1 | 5% | 7% | -3%
C=C(C)c1cc2c(ccc3ccc(=O)oc32)o1 | -7% | -2% | -2%
O=C(NCc1ccncc1)c1ccc(NS(=O)(=O)c2ccc(F)cc2)cc1 | 2% | 15% | -5%
O=C(CCc1ccccc1)NNC(=O)c1ccccn1 | -12% | -1% | 3%
CC(C)n1ncc2c(C(=O)N3CCN(c4ccc(F)cc4)CC3)cc(-c3ccccc3)nc21 | 3% | 10% | 7%
CCN1C(=O)[C@H]2[C@@H](c3ccc(-c4ccccc4)cc3)N[C@@](CC(C)C)(C(=O)OC)[C@H]2C1=O | 1% | 2% | -28%
CCOC(=O)C1=CN(Cc2cccc(F)c2)S(=O)(=O)NC1CCc1ccccc1 (stereo not drawn) | -10% | -19% | -13%
Cc1cccc2cc(C#N)c(SCC#N)nc12 | 11% | 0% | -24%
NCCCC[C@@H](C(=O)N1CCNCC1)n1cc([C@@H](N)CC(N)=O)nn1 | -1% | -25% | -5%

Some values from above.
In StopGo reporter, NCCCC[C@@H](C(=O)N1CCNCC1)n1cc([C@@H](N)CC(N)=O)nn1 reads -5%
In SARS PLpro yeast, COC(=O)C1CCN(C(=O)c2cc(S(=O)(=O)N3CCCCC3)ccc2Cl)CC1 reads 1%

(continued)
SMILES | RE007 growth inh | SARS PLpro yeast | StopGo reporter
O=S(=O)(N/N=C/c1ccc(N2CCOCC2)cc1)c1ccc(Br)cc1 | -21% | -3% | 25%
O=C(NCCCN1CCOCC1)c1cc(-c2ccc(F)cc2)nc2ccccc12 | 4% | 6% | 2%
O=C(c1ccc(F)cc1)c1ccc(OCC(=O)N2CCOCC2)cc1 | -1% | -1% | -16%
O=C(CCc1ccc(S(=O)(=O)N2CCOCC2)cc1)Nc1ccc(F)c(F)c1F | 7% | -4% | ?
Cc1ccc(/C=N/NC(=O)CNC(=O)c2cccc([N+](=O)[O-])c2C)o1 | 6% | -2% | 3%
C#CCOCCOCCOCCNc1nc(N2CCN(C(=O)C([C@@H](C)O)n3cc([C@@H](N)CCCCN)nn3)CC2)nc(N2CCN(C(=O)[C@H](CC(N)=O)n3cc(C(N)[C@@H](C)CC)nn3)CC2)n1 (stereo partly drawn) | -9% | -1% | -13%
CCN(Cc1ccccc1)C(=O)CSc1ccccc1C(=O)O | -4% | 1% | 75%[activator]
CCOc1ccccc1-c1nnc(SCC(=O)NC2(C#N)CCCC2)o1 | -1% | 2% | 1%
COc1cccc2sc3cc(NCCCN4CCOCC4)ccc3c(=O)c12 | -5% | 2% | -2%
Fc1ccccc1-c1cc2cc3c(cc2cn1)OCO3 | -22% | 8% | -11%
N#C/C(N=Nc1ccccc1O)=N\Nc1ccccc1O | 11µM* | -3% | ?
